Bst PK mod – alters activity of Bacillus stearothermophilus pyruvate kinase; 1.2% of 51,000 active; Potency, µM; partly purified Bacillus stearothermophilus pyruvate kinase, luminescence ATP production; ribose 5-phosphate activator present at AC10; in the data active means potency below about 11 µM; inconclusive means mostly about 12 µM to 25 µM; inactive means weaker than that;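 the screen sought inhibitors and activators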;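 also: potency is read from the fitted curve at half-maximal effect; scaled between full activation by ribose 5 phosphate and full inhibition by luteolin; about four in five hits inhibit and the cells do not say which; series up to 57 µM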
YjeE inh – displaces an ADP probe from E. coli YjeE (TsaE); P0AF67; purified YjeE, fluorescence polarisation of a bound ADP probe; Potency, µM; 0.05% of 71,000 active; AID 605; active = well fitted falling curve; inconclusive = weaker or top-dose-only fall, or a rising curve; inactive = flat or poorly fitted curve;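 also: top concentration of the series not given in the record; excess ADP was the control for the full effect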
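Fluorescence polarization of a BODIPY Texas Red–ADP probe (2 uM) bound to purified YjeE (10 uM) was read after 15 min room-temperature incubation with compounds. Loss of polarization marks inhibitors; ADP serves as titrated control.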
* = called active by the depositor; i = inactive; ? = inconclusive; / = not tested or not shown.

1) CCS(=O)(=O)N1CCC[C@H]2CN3CCc4cc(OC)ccc4[C@@H]3C[C@@H]21
2) O=C(CCC1CCCCC1=O)c1ccccc1 (configuration not stated)
3) COC(=O)CCN(c1ccccc1)S(=O)(=O)c1ccc(OC)cc1
4) COc1ccc2sc(NC(=O)CC(C)C)nc2c1
5) CS(=O)(=O)N(CC(=O)NCc1ccc2c(c1)OCO2)Cc1ccc(Cl)cc1
6) CCSc1nnc(C)n1-c1ccc(C(=O)O)cc1
entry no. | 1 | 2 | 3 | 4 | 5 | 6
Bst PK mod | / | >57 | >57 | i | >57 | 6.6*
YjeE inh | i | i | i | i | i | i

Look-ups from above.
Bst PK mod result of entry 2 → >57
Bst PK mod result of entry 6 → 6.6*
Bst PK mod result of entry 5 → >57
Bst PK mod result of entry 3 → >57

Some of the entries so far, with values under each structure.
Under each structure: Bst PK mod | YjeE inh
#1 CCS(=O)(=O)N1CCC[C@H]2CN3CCc4cc(OC)ccc4[C@@H]3C[C@@H]21
    / | i
#2 O=C(CCC1CCCCC1=O)c1ccccc1 (configuration not stated)
    >57 | i
#3 COC(=O)CCN(c1ccccc1)S(=O)(=O)c1ccc(OC)cc1
    >57 | i
#4 COc1ccc2sc(NC(=O)CC(C)C)nc2c1
    i | i
#5 CS(=O)(=O)N(CC(=O)NCc1ccc2c(c1)OCO2)Cc1ccc(Cl)cc1
    >57 | i
#6 CCSc1nnc(C)n1-c1ccc(C(=O)O)cc1
    6.6* | i

Next part:
7) COC(=O)Nc1ccc(S(=O)(=O)N2CCCc3ccccc32)cc1
8) O=C(Nc1ccccc1)OCC1CCCN2CCCCC12 (configuration not stated)
9) Cc1nn(C)c(C)c1CNC(=O)c1cc2n(n1)C(C(F)(F)F)CC(c1cccs1)N2 (configuration not stated)
10) O=C1Nc2ccc(S(=O)(=O)NCc3ccccn3)c3cccc1c23
11) Cn1c(-c2ccc3c(c2)OCO3)cnc1N
12) Cn1c(C(=O)NCCCN2CCCC2=O)cc2c(=O)n(C)c3ccccc3c21
entry no. | 7 | 8 | 9 | 10 | 11 | 12
Bst PK mod | i | / | >57 | >57 | >57 | /
YjeE inh | i | i | i | i | i | i

13) O=C(CC1=NCCNC(c2ccccc2)C1)c1ccccc1O (configuration not stated)
14) CCOC(=O)C1(c2csc(N)n2)COC(=O)C1 (configuration not stated)
15) Cc1nc2ccc(C(=O)O)cc2c2c1CC(C)S2 (configuration not stated)
16) CC(C)OCCCNC(=O)c1ccc(N(C)S(C)(=O)=O)cc1
17) O=C(O)Cn1c(O)c(C=Nc2ccccc2)sc1=S
18) CCC1CCCCN1CCNC(=O)c1[nH]c(C)c(C(C)=O)c1C (configuration not stated)
entry no. | 13 | 14 | 15 | 16 | 17 | 18
Bst PK mod | / | / | >57 | >57 | >57 | >57
YjeE inh | i | i | i | i | i | i

19) O=C(CN1C(=O)C2C3C=CC(C3)C2C1=O)N1CCc2ccccc2C1 (configuration not stated)
20) Cc1ccc2c(c1C)NC(C(=O)O)C1CC=CC21 (configuration not stated)
21) C[C@@H](C(=O)O)[C@H]1C[C@]1(C)[C@H](NC(=O)OCc1ccccc1)c1ccccc1
22) O=C1C(CCS(=O)c2ccccc2)C(=O)N(c2ccccc2)N1c1ccccc1 (configuration not stated)
23) O=C(Cc1ccc(S(=O)(=O)N2CCOCC2)s1)NCC1CCCCC1
24) CC(C)C[C@@H]1NC(=O)N(CCN2CCOCC2)C1=O
entry no. | 19 | 20 | 21 | 22 | 23 | 24
Bst PK mod | >57 | >57 | / | >26 | >57 | >57
YjeE inh | i | i | i | i | i | i

25) N#CCCn1c(=O)c(-c2ccccc2)nc2cnc(Oc3cccc(Cl)c3)nc21
26) Oc1ccc(-c2csc(Nc3cccnc3)n2)cc1
27) Cc1cccc([C@@H]2CN(C)CCc3c2cc(O)c(O)c3Cl)c1
28) Cn1c(=O)[nH]c(=O)c2c1nc(CN1CCN(c3ccccc3F)CC1)n2CCCc1ccccc1
29) Cc1cc(NC(=O)CN2CCc3ccccc3C2)nc2c1c(=O)oc1ccccc12
30) Cc1nn(Cc2ccc(Cl)c(Cl)c2)c(C)c1NC(=O)c1noc2c1CCCCC2
entry no. | 25 | 26 | 27 | 28 | 29 | 30
Bst PK mod | / | >57 | / | >57 | / | ?
YjeE inh | i | i | i | i | i | i

31) CCOC(=O)Cn1c(=O)c2c(nc(Br)n2Cc2ccc(Cl)cc2)n(C)c1=O
32) Cc1cccc(Nc2nc(N)nc(CN3CCN(c4ccc(F)cc4)CC3)n2)c1
33) Cc1ccc(-c2cc(C(=O)Nc3cnn(C45CC6CC(CC(C6)C4)C5)c3)no2)cc1
34) Cc1cc(C)cc(N2C(=O)CSC2c2cccs2)c1 (configuration not stated)
35) O=C(O)CCCNS(=O)(=O)c1ccc2ccccc2c1
36) N#CC1=C(N)Oc2n[nH]c(-c3ccccc3)c2C12C(=O)Nc1ccccc12 (configuration not stated)
entry no. | 31 | 32 | 33 | 34 | 35 | 36
Bst PK mod | >57 | >57 | >57 | >57 | / | >57
YjeE inh | i | i | i | i | i | i

37) Cc1nn2c3c(cnc2c1-c1ccc(Cl)cc1)C(=O)CC(c1ccco1)C3 (configuration not stated)
38) Cc1ccc(S(=O)(=O)Cc2ccc(C(=O)N3CCN(c4cc(C)ccc4C)CC3)o2)cc1
39) O=C(CCC(=O)Nc1ccc(Oc2ccccc2)cc1)NCCO
40) N#CCc1nc2c3c4c(sc3ncn2n1)CCCC4
41) Cc1cc(-c2ccccc2)nc2cc(C(=O)NCCCn3ccnc3)nn12
42) N[C@H](Cc1ccc(Cl)cc1)C(=O)O
entry no. | 37 | 38 | 39 | 40 | 41 | 42
Bst PK mod | >57 | >57 | >57 | i | >57 | /
YjeE inh | i | i | i | / | i | i

43) CCN(CC)CCC[C@H](C)Nc1c2ccc(Cl)cc2nc2ccc(OC)cc12
44) CCOC(=O)C1CCN(c2cc(C)nc3cc(-c4cccc(F)c4)nn23)CC1
45) CC(C)(C)c1csc(NC2=NS(=O)(=O)c3ccccc32)n1
46) COc1cc2nc(NC(=O)c3ccccc3)[nH]c(=O)c2cc1OC
47) COc1cc(C2C3=C(CC(c4ccco4)CC3=O)Nc3ccccc3N2C(C)=O)cc(OC)c1OC (configuration not stated)
48) CCOC(=O)C1=C(c2ccccc2)N2CCN=C2S1
49) c1ccc(CCCc2nc(-c3ccccn3)no2)cc1
entry no. | 43 | 44 | 45 | 46 | 47 | 48 | 49
Bst PK mod | / | >57 | / | >57 | / | >57 | >57
YjeE inh | i | i | i | i | i | i | i

Entries of single compounds, quoted from the list.
COc1cc2nc(NC(=O)c3ccccc3)[nH]c(=O)c2cc1OC is entered as Bst PK mod = >57; YjeE inh = i
CCOC(=O)C1=C(c2ccccc2)N2CCN=C2S1 is entered as Bst PK mod = >57; YjeE inh = i

This is a subset; the hit share may differ from the screen's.
